Source: PubChem (several laboratories)
NTR1 ag = agonists of NTR1, primary screen, imaging, U2OS cells, beta-arrestin-GFP, high content (AID 493036) | P30989 | NTR1-U2OS beta-arrestin-GFP spot imaging, agonist mode | activation, % at 20 µM | hit rate 0.17% among 330,000;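 active means activation at or above 40% of the spot to cytoplasm intensity ratio, with at least 20 cells analyzed; inconclusive means wells under 20 cells, flagged as cytotoxic or low count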;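 further: 0% = DMSO without peptide and 100% = 100 nM NTR1 peptide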
Target sequence (P30989 whole entry, looked up): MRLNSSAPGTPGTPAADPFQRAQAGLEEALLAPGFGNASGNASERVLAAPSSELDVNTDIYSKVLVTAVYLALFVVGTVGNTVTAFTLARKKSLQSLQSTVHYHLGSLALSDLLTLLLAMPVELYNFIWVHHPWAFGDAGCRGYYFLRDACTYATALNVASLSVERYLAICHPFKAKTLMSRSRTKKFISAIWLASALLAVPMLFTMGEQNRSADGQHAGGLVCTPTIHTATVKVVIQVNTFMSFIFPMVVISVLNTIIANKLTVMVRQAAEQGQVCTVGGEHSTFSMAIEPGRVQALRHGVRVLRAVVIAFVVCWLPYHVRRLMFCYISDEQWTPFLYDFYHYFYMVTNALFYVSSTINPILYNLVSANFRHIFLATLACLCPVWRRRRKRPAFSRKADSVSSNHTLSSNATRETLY
KOR agonists = kappa opioid receptor activators – cell-based, luminescence, uHTS, primary screen (AID 1777); KOR beta-arrestin recruitment, luminescence; higher % means a stronger effect; activation, % at 10 µM, or EC50 in µM where a hit was titrated; hit rate 0.02% among 280,000; in the data active means activation above about 50%, passing the limit was not always enough; further: a part of the inactive calls stands beside numbers as strong as those of hits
GPR55 activation = GPR55 agonists via beta-arrestin recruitment, primary screen, imaging, U2OS cells, beta-arrestin-GFP redistribution (AID 1961). hit rate 0.048% among 290,000. one-dose activation, % at 10 µM; EC50 in µM for titrated hits. U2OS GPR55 beta-arrestin-GFP redistribution imaging; higher % means a stronger effect;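 active means activation above 40% with more than 50 cells counted in the well; inconclusive means wells holding fewer than 50 cells, flagged as toxic or sparse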;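 further: U2OS osteosarcoma cells stably expressing GPR55 and beta-arrestin-GFP; plate controls were DMSO negative control for no effect and LPI positive control for full effect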
GPR55 antagonists = inhibition of LPI-stimulated GPR55 beta-arrestin translocation – imaging, U2OS, beta-arrestin-GFP, LPI agonist, primary screen (AID 2013); U2OS GPR55 beta-arrestin-GFP translocation imaging, LPI antagonism; higher % means a stronger effect; inhibition, % at 10 µM; hits with a dose series show IC50 in µM; hit rate 0.13% among 290,000;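 active means spots per cell inhibited over 60%, with over 100 cells counted and total cytoplasm intensity under 500,000; inconclusive means wells with under 100 cells, flagged as likely toxic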;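 further: U2OS cells stably carrying GPR55 and arrestin-GFP stimulated by 5 µM LPI near EC80; imaged beta-arrestin-GFP aggregate spots per cell after agonist stimulation; plate controls were LPI-stimulated DMSO wells for no effect and DMSO wells without LPI for full effect; some results filed as inactive read as strong as hits; confirmed hits need IC50 under 10 µM and bright autofluorescent wells are also inconclusive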
T cell HTS = T cell immune modulation candidate; 2C CD8+ T cell-vesicle binding, flow cytometry; active compounds read low; hit rate 0.068% among 330,000; calls only at 7 µM;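 active means response, share of CD8 T cells binding vesicles, and their 90th percentile fluorescence all below set limits, cut at about 80% in these data, passing the limit was not always enough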
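material = purified 2C TCR transgenic mouse naive CD8+ T cells | controls = Unloaded micro-vesicles (low), QL9 vesicles with 0.7% DMSO (high) | detection = cytometric PE anti-B7-1 and Alexa647 anti-CD8 signals after 1% paraformaldehyde fixation | incubation = binding step 1.5 h, 37 °C, antibody labelling 20 min, ice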
Myeloid diff 2 = compounds promoting myeloid differentiation; ER-HoxA9 myeloid progenitors, lysozyme-GFP differentiation, flow cytometry; calls only at 10 µM; hit rate 1% among 360,000;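 active means normalized GFP-positive differentiation at or above the plate's own cutoff, the solvent-only control mean plus 3 SD; inconclusive means no clear call, values can overlap the other calls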;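 further: cells exposed to compound for four days before flow analysis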
T cell HTS vesicle-bound % = second read-out of T cell HTS, no call of its own (marks repeat the call); double positive events, %; measured here: CD8+ vesicle-bound cell fraction;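 binding gate set so that unloaded-vesicle control wells show 10% double positive cells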
NTR1 ag cell count 20 µM = second read-out of NTR1 ag, no call of its own (marks repeat the call); cell count; measured here: cell count, cytotoxicity flag
Myeloid diff 2 GFP+ MAC1+ % = second read-out of Myeloid diff 2, no call of its own (marks repeat the call); GFP+ MAC1+ double positive, %; measured here: differentiation confirmed by MAC1 staining
* = called active by the depositor; i = inactive; ? = inconclusive; / = not tested or not shown.

SMILES	NTR1 ag	NTR1 ag cell count 20 µM	KOR agonists	GPR55 activation	GPR55 antagonists	T cell HTS	T cell HTS vesicle-bound %	Myeloid diff 2	Myeloid diff 2 GFP+ MAC1+ %
Cc1ccc(S(=O)(=O)CCc2nnc(N)s2)cc1	-1.1	97	-1.0%	0.2%	-14%	i	14	i	0.5
CCOC(=O)c1cnc2cc3c(cn2c1=O)CCCC3	-0.4	32	-1.2%	-0.1%	-8%	i	60	i	1.0
NS(=O)(=O)c1ccc(CNC(=O)/C=C/c2ccccc2)cc1	1.2	34	5.8%	0.0%	/	i	25	i	0.4
CC(C)N(CCCNC(=O)C1CCN(S(=O)(=O)N2CCOCC2)CC1)Cc1ccccc1	2.3	38	1.4%	0.7%	14%	i	22	/	/
O=C(Nc1ccsc1C(=O)NC1CC1)c1ccccc1	0.1	75	-0.5%	-0.2%	3%	i	20	i	2.4
Cc1ccc(C(=O)Nc2cc3c(cc2Cl)OCCCO3)cc1	3.6	32	-0.8%	-0.1%	23%	i	15	i	0.2
CCOC(=O)/C(C#N)=C\C1=C(N2CCCC2)CC(C)(CC)OC1 (stereo not drawn)	-0.5	33	-9.4%	-0.3%	-7%	i	39	i	0.6
Cc1cccnc1NC1(C(F)(F)F)N=C(c2ccccc2)NC1=O (stereo not drawn)	-0.7	65	5.3%	-0.1%	-1%	i	50	i	1.0
O=C(CCCNC(=O)/C(=C\c1ccccc1F)NC(=O)c1ccccc1)OCc1ccccc1	2.8	42	-0.7%	0.3%	10%	i	49	i	2.6
O=C(CP(=O)(c1ccccc1)c1ccccc1)Nn1cnnc1	-0.7	63	13%	0.2%	-5%	i	40	i	1.0
CCN1CCN(CCC(=O)Nc2cccc(OC)c2)CC1	-0.9	89	-1.2%	0.2%	20%	i	7	i	0.5
C/C(=N\Nc1nc(N)cc(Cl)n1)c1cccc([N+](=O)[O-])c1	2.2	77	3.9%	0.0%	-6%	i	32	i	7.3
CCCCCCCC(=O)NNC(=O)CCC(=O)O	0.0	35	0.9%	-0.1%	-9%	i	41	/	/
Cc1ccc2[nH]c(C)c(/C=N/Nc3nc4ccccc4s3)c2c1	41*	72*	-0.5%	-0.1%	/	i	39	i	2.4
CC(NC(=O)C(=O)NN=C1CCCCCC1)c1ccccc1 (stereo not drawn)	-1.0	59	-0.4%	-0.1%	0%	i	28	i	0.5
O=C(CCCNC(=O)/C(=C/c1ccccc1F)NC(=O)c1ccccc1)OCc1ccccc1	0.0	67	-1.3%	0.0%	-2%	i	47	i	0.7
O=C(O)C1C2C=CC(C2)C1C(=O)N1CCN(C/C=C/c2ccccc2)CC1 (stereo not drawn)	-1.3	47	1.5%	-0.1%	1%	i	52	i	0.3
COc1ccc(Oc2coc3cc(OC(=O)c4cccs4)ccc3c2=O)cc1	6.0	40	3.5%	0.0%	11%	i	52	i	0.6
COc1ccc2nc(C)cc(SCC(=O)Nc3c(C)cc(C)cc3C)c2c1	1.2	45	-2.0%	-0.1%	14%	/	/	i	4.0
CCCCn1nc2cc(C(=O)NC[C@@H]3CCCO3)ccc2c1OCC	2.4	71	4.0%	0.0%	-6%	i	41	i	1.0
O=C1Nc2ccc(F)cc2C12Nc1ccccc1-c1nnc(SCc3ccccc3Cl)nc1O2 (stereo not drawn)	3.9	43	-0.9%	-0.1%	16%	i	34	i	0.4
CCCC(=O)N1CCN(S(=O)(=O)c2cc(Cl)ccc2OC)CC1	-0.5	59	2.0%	0.2%	16%	i	46	i	0.5
COc1ccccc1N/C(=N/S(=O)(=O)c1ccc(C)cc1)c1ccc(Cl)cc1	3.2	52	-1.3%	-0.1%	12%	i	19	i	7.1
COc1ccc(C(=O)/C=C/Nc2ccc(NC(C)=O)cc2)cc1OC	-0.1	84	-2.6%	0.2%	8%	i	55	i	4.1
COC(=O)CC1C(=O)NCCN1C(=O)Nc1ccc(Cl)cc1 (stereo not drawn)	0.7	32	3.4%	-0.2%	7%	i	44	i	0.8
Cc1ccc(-c2cnn(-c3cccc(C(F)(F)F)c3)c2N)cc1	1.3	67	0.7%	-0.2%	16%	i	51	i	0.7
Cc1cc(N2CCCCC2)nc(NCc2ccccc2)n1	8.6	57	3.4%	-0.1%	-25%	i	43	i	0.4
CC1(C)CC(=O)C2=C(C1)OC(N)=C(C#N)C2c1ccccc1OC(=O)N1CCOCC1 (stereo not drawn)	-0.2	49	1.8%	0.2%	3%	i	22	i	4.4
COc1ccc(NC(=O)c2c(C(F)(F)F)nn(C)c2SCc2ccccc2)cc1	3.5	90	1.1%	0.2%	-14%	i	34	i	0.6
O=C1Nc2ccccc2C(=O)C1(Cl)Cc1ccccc1 (stereo not drawn)	0.4	58	1.8%	1.4%	22%	i	54	i	1.0
COc1cccc(OCC(=O)NC2CCCCC2)c1	0.2	69	-2.5%	-0.1%	4%	i	65	i	6.4
CCN(CC)CC(=O)c1c[nH]c2ccc(OC)cc12	-1.1	42	-1.0%	-0.1%	11%	i	56	i	2.6
Cc1cccc(-n2c(=O)c3c(n4cnnc24)-c2ccccc2CC32CCCCC2)c1	5.1	53	-4.5%	-0.1%	/	i	40	i	0.9
COc1ccc2c(c1)[nH]c1c(N3CCN(Cc4ccc5c(c4)OCO5)CC3)ncnc12	43*	65*	1.1%	-0.1%	3%	i	51	i	1.7
O=C(NCC(c1cccnc1)N1CCOCC1)Nc1ccccc1 (stereo not drawn)	-0.3	82	0.4%	-0.1%	8%	i	2	?	/
CN1CCN(C(=O)C(C(=O)c2ccc(F)cc2)n2ccccc2=O)CC1 (stereo not drawn)	-1.1	89	-3.9%	-0.1%	2%	i	6	i	2.6
CC(C)N=C(NC#N)SCc1ccc(Br)cc1	-1.2	56	1.7%	-0.1%	27%	i	35	i	0.2
CCOC(=O)c1c(C)nc2sc3c(c2c1-c1ccc(OC)cc1)NC(c1ccc(OC)cc1)NC3=O (stereo not drawn)	9.8	45	5.1%	0.5%	-2%	i	57	i	0.2
CCc1ccc2nc(Nc3nc(COC)cc(=O)[nH]3)nc(C)c2c1	3.4	41	-3.7%	0.7%	-12%	i	15	/	/
O=C(c1ccccc1)c1nn(-c2cccc(Cl)c2)c2nc(-c3ccccc3)cc(=O)n12	1.2	34	-1.4%	-0.1%	0%	i	56	i	0.7
Cc1ccccc1NC(=O)CSc1nnc(-c2ccccc2)n1-c1ccccc1	-0.4	47	1.0%	-0.1%	14%	i	32	/	/
COc1ccc(NC(=O)CCC(=O)c2ccc(-c3ccccc3)cc2)cc1	0.5	44	-2.5%	-0.1%	14%	i	55	i	1.2
Cc1nnc(SCCCn2c(N3CCN(c4ccccc4)CC3)nc3c2c(=O)[nH]c(=O)n3C)s1	-0.2	59	1.2%	0.2%	11%	i	54	i	1.4
Cc1ccc(OCC(=O)N/N=C\c2ccco2)c(C)c1	-1.3	53	0.3%	-0.1%	4%	/	/	i	3.7
CCOc1ccc(C(=O)NN2C(=O)C3C4C=CC(O4)C3C2=O)cc1 (stereo not drawn)	1.2	47	-3.0%	-0.1%	24%	i	56	i	0.3

Some of the entries so far, bar-delimited.
Structure | NTR1 ag | NTR1 ag cell count 20 µM | KOR agonists | GPR55 activation | GPR55 antagonists | T cell HTS | T cell HTS vesicle-bound % | Myeloid diff 2 | Myeloid diff 2 GFP+ MAC1+ %
CCN(CC)CC(=O)c1c[nH]c2ccc(OC)cc12 | -1.1 | 42 | -1.0% | -0.1% | 11% | i | 56 | i | 2.6
CC(C)N=C(NC#N)SCc1ccc(Br)cc1 | -1.2 | 56 | 1.7% | -0.1% | 27% | i | 35 | i | 0.2

(next part)
SMILES	NTR1 ag	NTR1 ag cell count 20 µM	KOR agonists	GPR55 activation	GPR55 antagonists	T cell HTS	T cell HTS vesicle-bound %	Myeloid diff 2	Myeloid diff 2 GFP+ MAC1+ %
Cc1cccc(C)c1NC(=O)C(=O)NCc1ccccn1	-0.4	79	6.5%	-0.1%	13%	i	30	i	2.1
COC(=O)N1N=C(c2ccccc2)CC1(O)C(F)(F)F (stereo not drawn)	-0.3	47	-2.1%	-0.3%	5%	i	30	i	6.6
CCCN1CCC(=NNC(=O)c2ccc(Br)o2)CC1	0.0	55	-2.8%	0.0%	/	i	12	i	5.1
N#CCSc1nc2scc(-c3cccs3)c2c(=O)n1CCc1ccccc1	-2.2	93	-2.3%	0.0%	-16%	i	23	i	0.5
CCCCCCC(=O)Nc1ccc(C(=O)N/N=C/c2cccnc2)cc1	-1.4	99	-2.8%	-0.1%	4%	i	61	i	1.2
CCn1ccc(C(=O)NC2C(=O)N3C(C(=O)O)=C(C)CSC23)n1 (stereo not drawn)	1.1	62	-1.6%	0.0%	-3%	i	51	i	1.4
O=c1cc(N2CCc3ccccc3C2)[nH]c(=O)n1C1CCCCC1	-0.9	39	-2.7%	0.9%	7%	i	39	i	0.6
CONC(=O)c1cc(OCC(F)(F)F)ccc1OCC(F)(F)F	-1.4	91	1.4%	-0.1%	12%	i	21	i	1.8
Cc1cc(N2C(=O)C(O)=C(C(=O)c3cccs3)C2c2cccc(O)c2)no1 (stereo not drawn)	0.3	42	5.3%	0.2%	4%	i	3	i	0.5
COC(=O)COc1ccc(C2NC(=O)NC(c3ccccc3)=C2C(C)=O)cc1OC (stereo not drawn)	0.3	43	-1.6%	0.2%	20%	i	53	i	0.9
CC(=O)Nc1ccc(NC(=O)CSc2nnc(-c3ccco3)n2Cc2ccco2)cc1	2.4	78	1.8%	-0.1%	22%	i	48	i	6.7
Cc1ccc(C(=O)Nc2nccc(-c3cccs3)n2)cc1	-3.0	84	0.1%	0.5%	17%	i	40	i	1.0
O=C(/C=C/c1ccccc1Cl)NC(=S)Nc1ccccc1C(=O)NC1CCCCC1	0.0	55	-3.8%	0.0%	8%	i	28	i	1.5
N/C(=N\c1nc2c(c(=O)[nH]1)CCC2)Nc1ccccc1C(F)(F)F	0.7	53	-1.3%	-0.1%	17%	i	32	i	1.6
COc1cc(OC)nc(Oc2ccccc2C(=O)Oc2ccc(Cl)cc2)n1	1.6	53	0.8%	0.0%	4%	i	26	i	7.3
CCOC(=O)C1=C(C)N(C)C(=S)NC1c1ccccc1Cl (stereo not drawn)	-5.4	72	2.3%	0.0%	13%	i	37	i	1.0
Cc1cc(C(F)(F)F)nc(SCC(=O)NC2=NC(=O)C(C)S2)n1 (stereo not drawn)	-1.6	48	-6.0%	-0.1%	13%	i	43	i	6.5
Cc1ccc(OC(=O)c2cccc(C(=O)Oc3ccc(C)cn3)n2)nc1	-1.1	85	-1.4%	-0.1%	10%	i	30	/	/
O=C(CCSc1ccc(Cl)cc1)N1CCCCCC1	-1.5	43	-2.1%	-0.1%	-1%	i	10	i	0.8
Cc1ccc(/C=N/NC(=O)c2cc3c(ccc4ccccc43)o2)cc1[N+](=O)[O-]	1.8	39	0.6%	0.6%	7%	i	47	i	1.1
Cc1sc(NC(=O)c2ccccc2)c(C(=O)NCCN(C)C)c1C	2.5	80	3.7%	-0.1%	20%	i	47	i	0.7
CCOC(=O)c1c(C)nc2sc3c(c2c1-c1ccc(OC)cc1)NC(c1ccccc1)NC3=O (stereo not drawn)	11	34	3.6%	-0.1%	-4%	i	55	i	0.4
CSc1nc(-c2ccc(C)cc2)nc(C(Cl)Cl)n1	-0.9	86	-2.7%	-0.1%	2%	i	10	i	0.6
CCC(=O)Nc1nnc(SCC(=O)c2ccc3c(c2)Cc2ccccc2-3)s1	0.4	48	0.5%	-0.1%	-9%	i	37	i	0.9

These rows are one share of the data. The share of hits here may be higher or lower than overall.
